Bioassay records (PubChem)
PABP polyA inh – PABP poly(A) RNA binding inhibitors, primary screen, biochemical, fluorescence polarization, uHTS. inhibition, % at 35 µM. Polyadenylate-binding protein 1 (Homo sapiens), P11940. 290,000 compounds, 1% hits;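 active = 50% or more with normal probe brightness, or confirmed in later tests; about a fifth of its hits are not listed in these tables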;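 note: calls also rest on retests at 20 µM and on dose response follow-up; controls were probe without protein and protein plus probe with vehicle; some compounds called inactive have numbers as strong as hits; many hits fall short of the cut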
CSC inhib – cancer stem cell viability inhibitors, primary screen, luminescence; cancer stem cell-like cells viability; inhibition, % at 7.5 µM; 300,000 compounds, 1.1% hits; AID 2717, 2010;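 active = mean at 75% or more and at least half the replicates too; tested in HMLE shEcad cells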;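 note: 0% = median of negative and 100% = median of positive control wells; the first replicate is given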
eIF4H inh – human eIF4H binding inhibitors, primary screen, translation initiation inhibitor project, biochemical, uHTS, fluorescence polarization | Eukaryotic translation initiation factor 4H (Homo sapiens), Q15056 | eIF4H fluorescence polarization binding assay | inhibition, % at 35 µM | 290,000 compounds, 0.94% hits;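 active = 50% or more with normal probe brightness, or confirmed in later tests; about a fifth of its hits are not listed in these tables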;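 note: calls also rest on retests at 20 µM and on dose response follow-up; 0% = protein and probe with vehicle and 100% = probe without protein; strong numbers were not always called active; many hits fall short of the cut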
Rce1 inh – yeast Rce1p protease inhibitors, primary screen, biochemical, fluorescence, cell-free homogeneous; CAAX prenyl protease 2 (Saccharomyces cerevisiae (strain ATCC 204508 / S288c)), Q03530; yeast membranes, quenched prenylated peptide cleavage fluorescence; calls only; 290,000 compounds, 0.27% hits; AID 2563, 2010;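 active = fall in fluorescence gain of 50% or more versus controls, with final raw signal at or below 3038400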;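 note: plate controls were neutral control wells for no effect and wells lacking membranes for full effect; tested at 10 µM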
Target sequence (Q03530 whole entry, looked up): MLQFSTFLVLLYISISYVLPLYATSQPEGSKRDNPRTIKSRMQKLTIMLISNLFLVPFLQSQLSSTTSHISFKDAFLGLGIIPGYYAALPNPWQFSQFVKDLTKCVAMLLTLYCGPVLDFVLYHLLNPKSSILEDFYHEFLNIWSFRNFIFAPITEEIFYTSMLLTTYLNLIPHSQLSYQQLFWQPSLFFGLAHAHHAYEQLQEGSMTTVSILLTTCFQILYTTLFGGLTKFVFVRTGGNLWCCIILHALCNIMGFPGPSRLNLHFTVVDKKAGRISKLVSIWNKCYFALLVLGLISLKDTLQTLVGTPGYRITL
UUG fidelity – modulators of yeast start codon fidelity, primary screen, whole organism, S. cerevisiae, single point, plate reader | S. cerevisiae UUG-firefly luciferase reporter, luminescence/redox ratio | activity score, % at 18.7 µM | 350,000 compounds, 0.13% hits | AID 602363, 2012;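 active = replicate mean at a twofold rise or more, about +100% in these data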;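 note: firefly luciferase made from a UUG start codon reports start codon fidelity; reporter light over untreated wells divided by growth signal over untreated wells; some hits fall short of that in this replicate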
Env fusion inh – inhibitors of HIV-1 Env-driven cell-cell fusion, primary screen, HeLa-JRFL effector, CEM21 target cells, luciferase. AID 651610, 2012. 360,000 compounds, 1.1% hits. inhibition, % at 12.3 µM;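 active = mean replicate inhibition score of at least 50 and every replicate individually at or above 50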;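 note: 0% = plate neutral controls and 100% = maraviroc near 300 nM; one replicate is shown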
MT1-MMP act inh – blockers of MT1-MMP proenzyme processing, primary screen, HT1080 RFP-PRO-GFP cells, GFP/RFP fluorescence; AID 651647, 2012; GFP/RFP ratio fluorescence, overnight; percent of plate control window, DMSO zero; 360,000 compounds, 0.061% hits; Matrix metalloproteinase-14 (Homo sapiens), P50281; GFP/RFP ratio change, % at 20 µM;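 active = GFP/RFP ratio change of at least 30% with cell ATP level not reduced by more than half and red fluorescence within 50% of control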; note: strong numbers were not always called active
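Assay system: HT1080 cells carrying an RFP-PRO-GFP reporter | Dosing: Single dose of 20 µM compound, 1% DMSO final | Incubation: Cells overnight before dosing, compound overnight, 37 °C, 5% CO2 | Evaluation: GFP/RFP fluorescence ratio | Control set: DMSO and RFP-L50D-GFP cell wells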
eIF4H inh retest – recorded beside eIF4H inh, whose call it bears; inhibition, %; compound at 20 µM; confirmation average;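 mean of two retest wells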
PABP polyA inh retest – further read-out of PABP polyA inh, marked with its call; inhibition, %; compound at 20 µM; confirmation repeats;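 mean of two retest wells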
MT1-MMP act inh RFP – recorded beside MT1-MMP act inh, whose call it bears; RFP signal change, %; measured here: RFP expression control read;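 0 = vehicle wells; hits needed this value within 50% of zero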
* hit, by the source's call; i = inactive; x = no result given. Some of the compounds tested; the hit share may differ from the screen's.

SMILES	PABP polyA inh	CSC inhib	eIF4H inh	Rce1 inh	UUG fidelity	Env fusion inh	MT1-MMP act inh	MT1-MMP act inh RFP	others
O=C(c1cc2ccccc2oc1=O)N1CCCCCCC1	-5.4	-1.2	-1.6	i	-19.2	11.9	0.0	2.9
CC(C)OCCCNC(=O)COc1ccc2oc3c(c2c1)CCCC3	2.0	8.4	3.6	i	19.7	29.9	-1.9	-0.3
CC(=O)Nc1sc(C)c(C)c1C(=O)OCC(=O)Nc1cccc(C)c1	x	15.6	x	x	-11.6	x	2.9	-0.6
Fc1ccc(-c2nnc(NC3=NCCCCC3)o2)cc1	-5.5	19.3	1.7	i	x	x	2.6	-0.4
O=C(COc1ccc(Br)cc1Br)NC1CCS(=O)(=O)C1 (configuration not stated)	x	-3.6	x	i	x	12.3	-1.2	-9.9
Cc1ccc(NC(=O)CN(C)C(=O)COC(=O)CCS(=O)(=O)c2ccc(C)cc2)cc1	-6.7	-12.6	-5.2	i	5.0	-43.2	0.7	2.3
O=C(CC1CS(=O)(=O)CC1CC(=O)Nc1ccc2c(c1)OCCO2)Nc1ccc2c(c1)OCCO2 (configuration not stated)	12.1	-0.4	-3.5	i	-55.7	-66.7	-1.5	2.5
Cc1cc(C)n2nc(-c3sccc3-n3c(C)ccc3C)cc2n1	-5.8	5.5	-7.2	i	-5.3	x	-6.7	-3.8
Cc1ccc(C2=NN(C(=O)COc3ncnc4ccccc34)C(c3ccco3)C2)cc1 (configuration not stated)	7.7	-6.6	-7.6	i	x	19.2	0.1	-6.7
COc1ccc2[nH]c(=O)c(CN(C(=O)c3ccncc3)C(C)(C)C)cc2c1	-1.8	0.9	-7.1	i	-16.3	x	-8.6	-9.0
COc1ccc2nc(NC3=NC(c4ccccc4)CC(=O)N3)nc(C)c2c1 (configuration not stated)	5.4	9.9	-2.1	i	x	4.5	-5.2	-3.8
CCOC(=O)c1c(NC(=O)c2nn(CC)cc2Br)c(C#N)cn1-c1ccccc1	3.4	-9.3	2.0	i	-9.7	x	-2.1	-7.1
CN(NS(C)(=O)=O)c1ncc(C(F)(F)F)cc1Cl	2.7	-5.1	3.9	i	-8.4	-7.0	-2.4	0.4
Cc1ccc(C(=O)CSc2nnc(-c3ccco3)n2C)cc1	0.3	-4.5	-3.1	i	-7.9	22.0	-1.8	-0.9
Cc1ccnn1CC(=O)N/N=C/c1cn[nH]c1-c1ccc(F)cc1	7.0	-7.5	-16.7	i	x	1.4	-1.4	-0.3
CCOC(=O)c1sc2nc(CC(=O)OC)nc(N3CCN(c4ccccn4)CC3)c2c1C	-1.3	8.6	0.2	i	-2.2	x	-9.2	-6.0
CCC(=O)Nc1cccc(C(=O)/C=C/c2ccc(F)cc2)c1	-12.2	54.6	-3.0	x	x	2.3	0.5	-16.2
O=C(NNC(=O)C1C2CCC(C2)C1C(=O)O)c1ccc(Br)o1 (configuration not stated)	59.2*	7.0	-2.5	i	x	x	x	x	eIF4H inh retest=19.8;PABP polyA inh retest=60.5*
COc1ccc(CCNC(=O)CSc2nc(N)c3c(C)c(C)oc3n2)cc1OC	-11.8	x	-2.5	i	0.6	x	3.2	8.2
COC(=O)C(CC(=O)c1ccc(Br)cc1)n1nc(C)cc1C (configuration not stated)	11.3	12.3	-1.0	i	-5.5	0.9	-0.2	4.4
COC(=O)c1ccc(CNC(=O)c2cc(COc3cncc(Cl)c3)on2)cc1	-4.6	-6.0	-7.9	x	-10.6	x	-10.6	-11.6
CCCCn1c(=O)c(CCC(=O)OCC(=O)NC(C)c2ccccc2)nc2ccccc21 (configuration not stated)	5.5	-22.0	-1.9	i	x	0.5	-0.4	1.4
COc1ccc(/C=C/C2=NC(=C\N(C)C)/C(=O)O2)cc1	2.5	5.7	3.0	i	6.3	x	11.0	4.4
O=C(NC1CCCCC1)C1CCN(c2nccs2)CC1	-0.6	-1.7	4.2	x	-10.5	-4.9	-2.8	0.4
O=C1COc2ccc(C(=O)COC(=O)C3CC(O)CN3S(=O)(=O)c3ccc(Cl)cc3)cc2N1 (configuration not stated)	4.5	1.3	-5.8	i	x	-14.5	-0.4	3.7
O=C(Nc1cccc(C(F)(F)F)c1)c1ccc2nc(N3C(=O)CCC3=O)sc2c1	9.1	-8.6	-6.5	i	5.3	-31.5	5.3	4.6
CC(C)(C)c1ccc(C(=O)NCCC(=O)Nc2cc(Cl)ccc2N2CCOCC2)cc1	x	9.9	x	x	-21.1	x	-1.0	-6.0
O=C(c1ccccc1)c1nnc(-c2ccncc2)o1	35.0	-2.1	-0.4	i	-40.9	x	-2.6	0.9
Cc1nc(NC(=O)Nc2ccc(Cl)cc2)sc1C	-9.7	1.2	-11.3	i	-16.1	-52.0	5.1	-4.3
CC1CCCC(C)N1CCCNC(=O)Cn1ncc2c([nH]c3ccccc32)c1=O (configuration not stated)	5.8	-12.3	18.4	i	-6.3	4.0	-2.3	-2.6

By substructure, the entries above containing an aryl methoxy group (4)
SMILES	PABP polyA inh	CSC inhib	eIF4H inh	Rce1 inh	UUG fidelity	Env fusion inh	MT1-MMP act inh	MT1-MMP act inh RFP	others
COc1ccc2[nH]c(=O)c(CN(C(=O)c3ccncc3)C(C)(C)C)cc2c1	-1.8	0.9	-7.1	i	-16.3	x	-8.6	-9.0
COc1ccc2nc(NC3=NC(c4ccccc4)CC(=O)N3)nc(C)c2c1 (configuration not stated)	5.4	9.9	-2.1	i	x	4.5	-5.2	-3.8
COc1ccc(CCNC(=O)CSc2nc(N)c3c(C)c(C)oc3n2)cc1OC	-11.8	x	-2.5	i	0.6	x	3.2	8.2
COc1ccc(/C=C/C2=NC(=C\N(C)C)/C(=O)O2)cc1	2.5	5.7	3.0	i	6.3	x	11.0	4.4

Going on with the list.
SMILES	PABP polyA inh	CSC inhib	eIF4H inh	Rce1 inh	UUG fidelity	Env fusion inh	MT1-MMP act inh	MT1-MMP act inh RFP	others
NC(c1csc(NC(=O)Nc2cccc(Cl)c2)n1)C1CCCCC1 (configuration not stated)	x	x	x	x	-12.8	-16.6	-5.7	-6.5
O=C(NC(=S)Nc1ccc(NC(=O)c2ccccc2)cc1)c1ccc(F)cc1	8.5	-23.9	-3.9	i	x	-13.7	7.5	3.4
Cc1cc(C)n2cnnc2n1	-6.5	29.3	-11.1	i	-14.3	0.5	-2.3	3.9
Cc1noc(C)c1COC(=O)c1cc2c(C)nn(-c3ccc(F)cc3)c2s1	-6.6	21.7	1.5	i	-1.4	x	-6.1	-2.9
Cn1c(C=O)c(C#Cc2ccccc2)c2ccccc21	x	20.2	x	x	-5.3	-13.7	2.8	3.4
CCN(CC)C(=O)CSc1nc(-c2ccccc2)ccc1C#N	-2.2	-6.1	7.1	i	x	14.6	1.2	6.9
COc1ccccc1NS(=O)(=O)c1cc(NC(=O)c2cc3ccccc3oc2=O)ccc1C	13.5	-2.6	17.9	i	x	-8.1	x	x
CCCC1=Nc2cc(C(=O)NCCCN3CCN(C)CC3)ccc2Sc2ccccc21	-2.5	3.8	-19.4	i	-4.6	3.7	-1.8	-4.0
Cc1ccccc1NC(=O)NCCCN1CCCC1	-3.7	4.1	-7.2	i	-10.8	-75.9	-0.9	2.7
CC1CC(C)CN(C(=O)C2CC(=O)N(c3ccc4c(c3)OCCO4)C2)C1 (configuration not stated)	x	x	x	x	8.3	-28.4	-1.2	-0.8
O=C(NCc1ccc2c(c1)OCO2)c1cc(Cl)ccc1Cl	6.5	-8.2	48.4	i	-29.9	-6.7	-1.0	1.6
COc1ccc(/C(C)=N/NC(=O)c2cc(-c3cccnc3)nc3ccccc23)cc1	-7.4	-3.7	1.6	i	-3.2	-1.4	1.3	1.5
O=c1c2ccccc2nc(-c2ccoc2)n1CCc1ccccc1	-1.5	-10.1	-5.5	i	5.1	x	14.1	-5.1
O=C(O)c1ccc(/C=N/N2CCN(C3c4ccccc4-c4ccccc43)CC2)cc1	4.6	-8.7	-0.5	i	-10.8	0.1	-4.7	-4.6
CC(=O)N1CC(C)Sc2ccc(S(=O)(=O)NCc3ccccc3Cl)cc21 (configuration not stated)	8.6	-12.7	-4.4	i	10.1	6.2	-2.9	-14.3

Next section (3 carried over from the part before).
SMILES	PABP polyA inh	CSC inhib	eIF4H inh	Rce1 inh	UUG fidelity	Env fusion inh	MT1-MMP act inh	MT1-MMP act inh RFP	others
O=c1c2ccccc2nc(-c2ccoc2)n1CCc1ccccc1	-1.5	-10.1	-5.5	i	5.1	x	14.1	-5.1
O=C(O)c1ccc(/C=N/N2CCN(C3c4ccccc4-c4ccccc43)CC2)cc1	4.6	-8.7	-0.5	i	-10.8	0.1	-4.7	-4.6
CC(=O)N1CC(C)Sc2ccc(S(=O)(=O)NCc3ccccc3Cl)cc21 (configuration not stated)	8.6	-12.7	-4.4	i	10.1	6.2	-2.9	-14.3
O=S1(=O)C=C(Oc2ccc(F)cc2)c2ccccc21	-5.5	4.9	5.5	i	-12.6	-47.1	2.9	3.5
Cc1ccc(NS(=O)(=O)c2cc(NC(=O)c3cc(=O)[nH]c(=O)[nH]3)ccc2Cl)c(C)c1	0.7	2.4	6.2	i	-14.3	-6.4	2.1	-0.4
COc1cc(C(=O)COC(=O)Cc2cnc3sccn23)cc(OC)c1OC	7.8	-13.2	-7.6	i	8.0	x	2.0	2.1
CC1CCCC(C)N1C(=O)COC(=O)c1cncc(Br)c1 (configuration not stated)	x	0.1	x	x	x	6.1	-6.0	4.9
Cc1cc(Br)cn2c(Cc3cccc(F)c3)c(-c3ccccc3)nc12	x	x	x	x	-1.1	-17.3	-3.8	3.3
Cc1cc(C)cc(NC(=O)NCC2CCN(Cc3cc(C)ccc3C)CC2)c1	2.5	2.2	15.2	i	-18.0	-11.2	-3.0	-2.4
COCCn1c(SCC(=O)N2CCCc3ccccc32)nc2ccccc2c1=O	3.1	8.2	-3.0	i	-0.6	-25.2	-2.0	-3.2
COCC(COS(N)(=O)=O)C(C)C (configuration not stated)	7.2	5.5	-10.8	i	-12.9	-21.9	9.6	3.6
CC1(C(=O)NS(=O)(=O)C2CC2)CCCN(C(=O)c2cc3ccccc3s2)C1 (configuration not stated)	x	x	x	x	3.2	2.5	-6.9	-1.5
CC1=C(C(=O)Nc2ccccn2)C(c2ccccc2)n2ncnc2N1 (configuration not stated)	8.1	-11.4	-1.4	i	-1.6	x	-3.8	2.3
Clc1ccc(-c2nnc(-c3ccc4ccccc4c3)o2)cc1	x	x	x	x	-9.0	-6.5	-1.2	2.0
